# Bioassay records as filed in PubChem BioAssay.
# TRPML1 ag: agonists of human TRPML1 channel. TRPML1-expressing cells, Ca2+ dye fluorescence, FDSS; host cell line not named in the record; reference of the full effect not given here. Q9GZU1. actives 0.12% (n = 410,000). activation, % (no concentration beside the values); in the data active = activation above about 50%; inconclusive = about 30% to 50%; inactive = below about 30%; also: 0% is about no effect; the text of the record puts the active cut at 80%
# Target sequence (Q9GZU1 whole entry, looked up): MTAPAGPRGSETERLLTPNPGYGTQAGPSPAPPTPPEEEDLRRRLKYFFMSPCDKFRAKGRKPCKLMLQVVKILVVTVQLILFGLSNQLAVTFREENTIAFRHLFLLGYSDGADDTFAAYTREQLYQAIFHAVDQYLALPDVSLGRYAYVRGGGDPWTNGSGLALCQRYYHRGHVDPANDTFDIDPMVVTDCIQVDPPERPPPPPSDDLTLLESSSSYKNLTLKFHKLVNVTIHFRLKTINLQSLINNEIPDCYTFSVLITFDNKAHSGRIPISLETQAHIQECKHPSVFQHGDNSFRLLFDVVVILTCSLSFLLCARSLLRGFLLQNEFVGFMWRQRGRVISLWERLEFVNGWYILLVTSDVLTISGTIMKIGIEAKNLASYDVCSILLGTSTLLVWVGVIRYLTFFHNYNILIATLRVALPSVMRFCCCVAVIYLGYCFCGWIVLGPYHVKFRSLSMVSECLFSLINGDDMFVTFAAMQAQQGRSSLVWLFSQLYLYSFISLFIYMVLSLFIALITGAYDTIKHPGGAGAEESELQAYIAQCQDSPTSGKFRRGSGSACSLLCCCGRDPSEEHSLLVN
#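 Tet-induced TRPML1-DL cells, 1,500 per well, cultured overnight, were loaded with a no-wash Ca2+ dye for 45–90 min. Calcium fluorescence was recorded on the FDSS for 110 s after compound addition, before the EC80 agonist (4 uM 54-4) was added.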
# D2 potentiator: potentiates the human D2 dopamine receptor allosterically | DiscoveRx D2 beta-arrestin cells, luminescence, 90 min; 100% = 57 uM dopamine signal | actives 0.23% (n = 360,000) | AID 624464 | potentiation, % (no concentration beside the values); active = potentiation of 50% or more; inconclusive = 30% to 50%; inactive = 30% or less;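 also: compound concentration not given in the record; tested on top of an EC20 dose of dopamine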
# Target sequence (P14416 whole entry, looked up): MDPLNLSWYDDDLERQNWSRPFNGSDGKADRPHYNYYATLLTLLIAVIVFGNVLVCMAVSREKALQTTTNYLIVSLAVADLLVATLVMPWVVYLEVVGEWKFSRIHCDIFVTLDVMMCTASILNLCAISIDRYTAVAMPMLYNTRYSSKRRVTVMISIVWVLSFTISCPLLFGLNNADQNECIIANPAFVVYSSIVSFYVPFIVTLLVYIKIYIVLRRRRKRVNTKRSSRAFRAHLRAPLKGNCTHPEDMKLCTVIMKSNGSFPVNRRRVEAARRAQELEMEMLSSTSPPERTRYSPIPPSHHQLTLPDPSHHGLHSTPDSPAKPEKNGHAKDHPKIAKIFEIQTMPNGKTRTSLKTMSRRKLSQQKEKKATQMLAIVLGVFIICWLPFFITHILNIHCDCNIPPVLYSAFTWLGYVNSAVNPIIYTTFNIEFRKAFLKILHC
#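 PathHunter beta-arrestin assay in DiscoveRx D2 cells. Compounds were added with an EC20 of dopamine (50 nM final) for 90 min at 37 deg C. Luminescence was read 1 h after detection reagent, with 57 uM dopamine as the EC100 control.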
# Six1-Eya2 blk: inhibitors of human Six1/Eya2 interaction | AlphaScreen GST-Six1/His-Eya2 binding, biochemical; stronger effect = lower value; control for the full effect not named in the record | Q15475+O00167 | activity change, % (no concentration beside the values) | actives 0.56% (n = 360,000) | AID 651725; in the data active = activity change below about -65%; inconclusive = about -30% to -65%; inactive = above about -30%; also: % is scaled to controls: 0 for no effect and ±100 for the full control effect; compound concentration not given in the record
#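 GST-Six1 + His-Eya2 (5X stock: 250/500 nM); Tris pH 8.0, 300 mM NaCl, 0.05% BSA, 0.02% Tween 20; GSH donor/Ni acceptor beads; 1 h 37 °C dark; AlphaScreen readout.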
# TRPV1 PAM: human TRPV1 potentiation. Q8NER1. TRPV1-expressing cells, Fluo-8 calcium influx, capsaicin EC20 potentiation; host cell line not named in the record; control for the full effect not named in the record. potentiation, % at 8.33 µM. actives 0.02% (n = 320,000). AID 540277; active means potentiation above 80%; inconclusive means 30% to 80%; inactive means below 30%; also: 0% is about no effect
#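 TRPV1-expressing cells were cultured overnight at 35.5C and loaded with Fluo-8 calcium dye for 40 to 90 min at room temperature. After a 10 s baseline, compound was added and calcium influx was read kinetically for 3 min (ex 480/em 520 nm).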
# CtBP-E1A blk: CtBP/E1A binding inhibition; AlphaScreen GST-E1A/His-CtBP binding, 1536-well; stronger effect = lower value; control for the full effect not named in the record; activity change, % (test concentration not listed); actives 0.49% (n = 340,000); in the data active means activity change below about -65%; inconclusive means about -30% to -65%; inactive means above about -30%; also: % is scaled to controls: 0 for no effect and ±100 for the full control effect; compound concentration not given in the record
#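 Protein mix (5X: 125 nM each GST-E1A, His-CtBP) was incubated with pinned compound 2 h at 37 deg C in dark, in 50 mM Tris pH 8.0 buffer with 300 mM NaCl. Glutathione donor and nickel acceptor beads followed; AlphaScreen signal read after 1 h.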
# TRPML1 blocker: inhibitors of human TRPML1 channel. Q9GZU1. TRPML1-inducible cells, Ca2+ dye fluorescence, FDSS; stronger effect = lower value; inhibition of EC80 agonist-evoked calcium signal. activity change, negative = inhibition, % (concentration not given with the values). actives 0.02% (n = 390,000); in the data active means activity change below about -50%; inconclusive means about -30% to -50%; inactive means above about -30%;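 also: stimulus is agonist 54-4 at its EC80 concentration; % is scaled to controls: 0 for no effect and ±100 for the full control effect; compound concentration not given in the record; the text of the record puts the active cut at -80%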
#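 TRPML1-DL cells, Tet-induced overnight (~16 h, 37 °C) at 1,500 cells/well, were loaded with Ca8 no-wash dye plus quencher for 45-90 min at room temperature. Compounds were pinned during FDSS kinetic reading; agonist 54-4 at EC80 (4 uM final) then added.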
# Numbers without * were called inactive; ? = inconclusive; . = not tested or not shown; & = joins results of further samples.
item	SMILES	TRPML1 ag	D2 potentiator	Six1-Eya2 blk	TRPV1 PAM	CtBP-E1A blk	TRPML1 blocker
1	COC(=O)c1ccc2c(=O)n(Cc3ccco3)c(SCC(=O)Nc3ccc(C)c(Cl)c3)nc2c1	-0.4	5	1	-31	9	-4
2	COc1cc(OC)c(OC)cc1/C=N/n1c(COc2ccccc2)n[nH]c1=S	-1.8	-9	-1	6	0	-1
3	C=CCc1cccc2cc(C(=O)NC3CCCC3)c(=O)oc12	-0.5	2	5	-8	4	0
4	C/C(=N\NC(=O)c1nnn(-c2nonc2N)c1C(C)C)c1ccc2ccccc2c1	-0.3	2	3	-4	-24	27
5	COc1ccc(C2=NS(=O)(=O)N(C)C(C(=O)NCc3ccc4c(c3)OCO4)=C2)cc1	0.7	-7	-9	-4	0	0
6	CCOc1ccc(Cn2c(C)nc([N+](=O)[O-])c2SCC(O)CCl)cc1[N+](=O)[O-] (stereo not drawn)	1.0	4	0	6	4	-12
7	CC(C)=NNC(=O)C1=NNC(=O)C1	-0.7	-12	-3	16	.	25
8	CC(C)=CCC[C@H](C)C[C@@H]1Cc2[nH][nH]c(=O)c2[C@H](c2ccc(Cl)cc2)O1	-0.7	.	-16	.	1	.
9	COc1ccc(CC(=O)NC(C)c2nnc(SCC(=O)Nc3ccccc3)n2C)cc1 (stereo not drawn)	1.1	3	1	7	5	-19
10	Cn1c(N2CCN(C(c3ccccc3)c3ccccc3)CC2)nc2c1c(=O)[nH]c(=O)n2C	2.5	23	0	-6	1	15
11	CC1CCc2c(sc3[nH]c(=S)n(C)c(=O)c23)C1 (stereo not drawn)	2.1	-3	3	-8	-1	9
12	Nc1nc2c(Br)ccc(Br)c2cc1C(=O)NCCc1ccccc1	-0.5	.	3	.	8	.
13	O=C(C[C@H]1C[C@H]2c3cc(NS(=O)(=O)c4ccc(F)cc4)ccc3O[C@H]2[C@H](CO)O1)NCc1cc(F)ccc1F	0.3	2	4	.	-5	-18
14	Cc1ccc(-c2csc(N(CCCN(C)C)C(=O)c3ccco3)n2)cc1	-0.6	-18	-20	-2	-16	-12
15	COC(=O)c1[nH]c2ccc(Cl)cc2c1NC(=O)C1CC1	-0.5	-4	3	-14	-7	-1

# The final four entries of the part above are carried over, then new ones follow:
item	SMILES	TRPML1 ag	D2 potentiator	Six1-Eya2 blk	TRPV1 PAM	CtBP-E1A blk	TRPML1 blocker
12	Nc1nc2c(Br)ccc(Br)c2cc1C(=O)NCCc1ccccc1	-0.5	.	3	.	8	.
13	O=C(C[C@H]1C[C@H]2c3cc(NS(=O)(=O)c4ccc(F)cc4)ccc3O[C@H]2[C@H](CO)O1)NCc1cc(F)ccc1F	0.3	2	4	.	-5	-18
14	Cc1ccc(-c2csc(N(CCCN(C)C)C(=O)c3ccco3)n2)cc1	-0.6	-18	-20	-2	-16	-12
15	COC(=O)c1[nH]c2ccc(Cl)cc2c1NC(=O)C1CC1	-0.5	-4	3	-14	-7	-1
16	COc1ccc(C(=O)N/C(=C/c2cccs2)C(=O)NN)cc1OC	0.2	-9	-5	5	-1	4
17	CCc1nnc(SCCSc2nnc(CC)n2N)n1N	3.2	7	4	-12	-2	-9
18	O=[N+]([O-])c1cccc(S(=O)(=O)N2CCCCCC2)c1	-0.4	3	0	-18	0	25
19	COCCNC(=O)C(=O)N/N=C(\C)CC(=O)Nc1cccc(C(F)(F)F)c1	0.8	-7	6	1	1	16
20	COc1cc(OC)cc(-c2cc3nc(C)c(CCC(=O)NCc4ccccc4)c(C)n3n2)c1	-0.4&1.2	8	-15	-8	-2	4&-2
21	CN(C)c1ccc(C2NC(=O)c3ccccc3N2)cc1 (stereo not drawn)	-0.7	-2	0	-3	0	-11
22	CC(=O)N1CCCc2cc(S(=O)(=O)Nc3ccccc3C)ccc21	-0.5	-2	3	8	0	-2
23	CCc1nnc(NC(=O)CN2C(=O)CCC2=O)s1	0.5	-2	4	-4	8	18
24	CCCCc1c(-c2ccccc2OC)ncn1CCc1cccc(F)c1	-0.3	.	?	.	-22	.
25	COc1cc(C(=O)N/N=C/c2coc3ccc(Cl)cc3c2=O)ccc1O	0.5	-1	0	-12	-3	-1
26	C=CCOc1ccccc1CN1CCC(n2nccc2NC(=O)c2ccccc2)CC1	-0.2	-35	-2	9	2	-14
27	COc1ccc(N2C(=O)CSC2c2ccc([N+](=O)[O-])cc2)cc1 (stereo not drawn)	1.0	-2	7	14	-5	-4
28	CCc1nnc(NS(=O)(=O)c2ccc(NC(=O)c3cccc(OC)c3)cc2)s1	-0.1	-9	5	13	-1	-9
29	COc1ccccc1N(C(=O)Cn1nnc2ccccc21)C(C(=O)NCc1ccco1)c1ccc(C)o1 (stereo not drawn)	9.7	-7	0	-17	-3	21
30	COc1cc(F)ccc1-c1csc(C(NC(C)=O)c2ccc(F)c(F)c2)n1 (stereo not drawn)	-0.4	11	0	.	2	.

# Going on with the list:
item	SMILES	TRPML1 ag	D2 potentiator	Six1-Eya2 blk	TRPV1 PAM	CtBP-E1A blk	TRPML1 blocker
31	C=CCn1c(SCc2nc3ccccc3[nH]2)nnc1-c1cccc(OC)c1	-0.5	-16	-1	18	-3	-7
32	Cc1ccc(C(=O)NCCc2nnc3ccc(SCC(=O)Nc4ccccc4C)nn23)cc1	0.7	-6	10	5	0	8
33	Cc1ccc(S(=O)(=O)CCC(=O)c2cccc([N+](=O)[O-])c2)cc1	4.3	-12	-20	-4	-1	-7
34	COc1ccc(CCNC(=O)CCC(=O)N2CC(C)Oc3ccccc32)cc1OC (stereo not drawn)	0.4	-11	-1	24	-8	-4
35	O=C(OCC(=O)c1ccc(Cl)cc1Cl)c1cnccn1	0.0	-32	-1	0	2	10
36	O=C(O)c1ccc(CSc2ncnc3c2cnn3Cc2ccccc2)cc1	1.1	2	2	9	8	12
37	O=C(Nc1ccc2nc(-c3cccs3)c(-c3cccs3)nc2c1)N1CCOCC1	1.6	0	8	-14	12	3
38	CN(C)c1ccc(N/C=C/C(=O)C(F)(F)F)cc1	-0.4	5	-23	-15	-19	9
39	O=C(CSc1cccc[n+]1[O-])N1CCCc2ccccc21	-0.1	-5	-2	10	0	-2
40	CC1CCc2c(sc(NC(=O)COC(=O)c3ccccc3NCc3ccco3)c2C#N)C1 (stereo not drawn)	0.3	-10	0	-9	-4	1
41	COc1cc(/C=C/C(=O)NCc2cccnc2)cc(OC)c1OC	0.0	-4	3	-10	6	2
42	Cc1c(C(=O)N/N=C/c2ccccc2)[nH]c2ccc(Cl)cc12	1.3	-10	-1	-8	.	14
43	CSc1ccc(/C=C/c2ccc3cccc(O)c3n2)cc1	-0.4	-8	0	8	8	-19
44	Cc1coc2cc3oc(=O)c(Cc4ccccc4)c(C)c3cc12	0.0	10	0	14	7	-2
45	COc1ccc(C)cc1S(=O)(=O)N1CCN(S(=O)(=O)c2cc(C)ccc2OC)C(C)C1 (stereo not drawn)	4.1	-10	-5	-9	-2	39

# Along the list, quoted from above:
# TRPML1 blocker for entries 23 to 34: 18, ., -1, -14, -4, -9, 21, ., -7, 8, -7, -4

# More records follow:
item	SMILES	TRPML1 ag	D2 potentiator	Six1-Eya2 blk	TRPV1 PAM	CtBP-E1A blk	TRPML1 blocker
46	Nc1ncn(C23CC4CC(CC(C4)C2)C3)n1	0.0	-14	0	6	4	-1
47	O=C(CN(C(=O)c1csnn1)c1ccccc1Cl)NC1CCCCC1	0.7	-11	5	-12	7	6
48	O=C(OCCCN1CCCCC1)c1ccc(O)cc1	-0.7	-10	-3	18	-3	-8
49	CCC(CO)Oc1cc(NC(=O)c2ccc(F)cc2)c2ncn(C(C)C)c2c1 (stereo not drawn)	0.3	-8	1	-18	4	2
50	Cc1cc(C)c(C)c(OCCCCn2cnc3ccccc3c2=O)c1	0.3	-5	4	-2	14	9
51	CN1C(=O)N(c2ccc(Cl)cc2)C(C)(O)CC1(C)C (stereo not drawn)	-0.2	-10	-6	27	0	-16
52	Clc1ccc(CNCc2cccs2)c(Cl)c1	0.4	-27	17	?	6	9
53	CC(=O)CCc1c(C)nc2ccc(C)cc2c1Cl	-0.2	-4	-3	-6	0	-6
54	CC(C)CCOP(=O)(c1ccccc1)c1ccccc1	-0.6	-9	12	0	5	0
55	O=C(Nc1ccccc1OC(F)F)c1ccc(S(=O)(=O)N2CCOCC2)cc1	0.4	1	6	-12	-3	-20
56	Cc1cc(OCc2nn[nH]n2)c2c(C)c(Cc3ccccc3)c(=O)oc2c1	-0.1	11	-14	-5	-2	9
57	CCc1nnc(NC(=O)Nc2ccccc2OC)s1	-0.1	-1	0	24	-2	-7
58	CNC(=O)N(O)C1N(NC(=O)Nc2cccc3ccccc23)C(=S)SC1(C)C (stereo not drawn)	0.4	6	-8	-5	-1	17
59	O=S(=O)(c1ccc2[nH]c3c(c2c1)CCCC3)N1CCCCC1	0.3	-11	?	-7	.	-2
60	Cc1nc(SCC(=O)NCCN2C(=O)CSC2=O)nc(C)c1C	0.7	19	12	.	-1	2

# Remaining list, next part.
item	SMILES	TRPML1 ag	D2 potentiator	Six1-Eya2 blk	TRPV1 PAM	CtBP-E1A blk	TRPML1 blocker
61	CCn1c(=O)c2sccc2n(Cc2ccccc2)c1=O	1.2	2	4	12	1	-16
62	O=C(CN1CCOCC1)Nc1ccc(N2CCN(c3ccccc3)CC2)c(F)c1	0.2	6	18	-30	22	-12
63	COc1ccccc1N1CCN(C(=O)c2ccc3c(=O)n4c(nc3c2)CCCCC4)CC1	0.8	2	-21	9	-20	44
64	CC1(C)Cc2ccccc2C(=NC(Cc2ccccc2)C(=O)O)N1 (stereo not drawn)	-0.3	-6	7	2	-12	-10
65	CCC(C)N=C1Sc2nc3ccc(C)cc3cc2CN1CCOC (stereo not drawn)	0.4	-2	6	-1	3	8
66	COc1cccc(NC(=O)CN(C)C(=O)c2oc3c(ccc4ccccc43)c2C)c1	1.3	-4	0	-12	-20	17
67	COc1ccc(N=C2C(=O)Nc3ccc(C)c(Br)c32)cc1	.	-109	9	-15	.	.
68	CCS(=O)(=O)N1CCC(c2nc(-c3ccc(C)cc3)no2)CC1	-0.3	-6	3	7	4	-12
69	O=C(Nc1cccc2ccccc12)NC(Cc1ccccc1)C(=O)O (stereo not drawn)	-0.7	-1	-8	3	-17	-3
70	COc1cccc(CNC(=O)C(Cc2ccccc2)n2cccc2)c1 (stereo not drawn)	-0.3	-2	-3	3	-1	23
71	Cc1nc(N)c(C#N)c(-c2ccc3c(c2)OCO3)c1C	3.0	-11	2	-22	.	9
72	COC(=O)C1=C(C)N(Cc2cccnc2)C(=O)C1	-0.5	-1	1	-38	-1	1
73	Cc1cc(C(=O)OCC(=O)Nc2cc(S(=O)(=O)N3CCOCC3)ccc2Cl)c(C)o1	0.7	-13	-3	-3	-7	0
74	O=C(CSc1ncnc2c(-c3ccc(Cl)cc3)nsc12)c1ccccc1	0.0	-9	-2	6	11	7
75	N#CC(C#N)=C1C(=O)N(CCN2CCCCC2)c2ccccc21	0.8	-16	-6	4	?	1
76	COCC1CCCN(Cc2cn(-c3ccccc3F)nc2-c2cc(C)sc2C)C1 (stereo not drawn)	-0.4	-19	-9	-12	-2	-2
77	CCOC(=O)c1c(NC(=O)CCNCc2ccco2)sc2c1CCC2	-0.8	-11	-16	14	-12	-1
78	COc1ccc(CCNC(=O)CCn2c(SCC(=O)N3CCCC3)nc3ccccc3c2=O)cc1OC	0.4	-15	4	-7	.	-1
